VACV Venus inh: qHTS for Stage-Specific Inhibitors of Vaccinia Orthopoxvirus: Venus Reporter Primary qHTS; AID 720580, 2013; hit rate 0.46% among 330,000; Vaccinia virus Venus reporter expression, fluorescence; Potency, µM (doses to about 36.5 µM), for inactives: at the highest dose activity change, negative = inhibition, usual class: inhibitors; active means well fitted inhibition curve with a large enough effect; inconclusive means small, poorly fitted or top-dose-only effect; inactive means no such curve, though single readings can be large or run the other way; tested in A549 cells; further: nearly all actives have a fitted effect of over 30% in size; inactives centre near -10
VACV mCherry inh: qHTS for Stage-Specific Inhibitors of Vaccinia Orthopoxvirus: mCherry Reporter Primary qHTS; Vaccinia virus mCherry reporter infection, fluorescence; about a quarter of the inactives have no number; Potency, µM (titrated, usually from 36.5 µM), for inactives: at the top dose activity change, negative = inhibition, usual class: inhibitors; hit rate 0.63% among 310,000; active = well fitted inhibition curve with a large enough effect; inconclusive = small, poorly fitted or top-dose-only effect; inactive = no such curve, though single readings can be large or run the other way; tested in A549 cells; further: nearly all actives have a fitted effect of over 35% in size; inactives centre near -10
* = called active by the depositor; i = inactive; ? = inconclusive; . = no result given; & = joins results of further samples; [ ] = remark or other dose. On the % scale 0 is the no-effect control and ±100 the full control effect; potency means the concentration at half of the fitted maximal effect.

SMILES	VACV Venus inh	VACV mCherry inh
CCOC(=O)C1CCCN(C(=O)c2cnn(-c3ncc4c(n3)-c3ccccc3CCC4)c2C2CC2)C1 (stereo not given)	0%	-2%
CCN(CC)CCN1C(=O)C(=O)/C(=C(/O)c2ccc(S(=O)(=O)N3CCOCC3)cc2)C1c1ccc(Cl)cc1 (stereo not given)	2%	-10%
CC(=O)Nc1ccc(NC(=O)COC(=O)C2CCC(C(C)(C)C)CC2)cc1 (stereo not given)	-13%	-20%
CCOc1ccccc1Oc1nc(C)nc2c1oc1ccccc12	-15%	-25%
C[C@@H]1CN([C@@H](C)CO)C(=O)CCCn2nncc2CO[C@@H]1CN(C)C(=O)Cc1ccccc1	-13%	6%
Nc1nc2nc(-c3ccc(Cl)cc3)cc(C(F)(F)F)n2n1	-21%	-29%
CC(C)(C)C(=O)c1sc(Nc2ccccc2)nc1N	?	-30%
C[C@H](CO)N1C[C@H](C)[C@@H](CN(C)C(=O)Nc2ccc3c(c2)OCO3)Oc2ccc(NC(=O)CCC(F)(F)F)cc2C1=O	-9%	-10%
O=C(Nc1ccc(C(=O)Nc2ccc(C(=O)Nc3ccc(S(=O)(=O)O)c4cc(S(=O)(=O)O)cc(S(=O)(=O)O)c34)cc2)cc1)Nc1ccc(C(=O)Nc2ccc(C(=O)Nc3ccc(S(=O)(=O)O)c4cc(S(=O)(=O)O)cc(S(=O)(=O)O)c34)cc2)cc1	-10%	-4%
O=C(NC(Cc1c[nH]c2ccccc12)C(=O)O)/C(=C/c1ccco1)NC(=O)c1ccccc1 (stereo not given)	-13%	i
COC(=O)c1ccncc1C(=O)Nc1ccc(F)cc1	-12%	-6%
Cc1ccccc1N=C(NO)c1nonc1N	-1%	?
COc1ccc(OC)c(NC(=O)CCc2c(C)nn(-c3ccc(N4CCCC4)nn3)c2C)c1	2%	-6%
CC1(C(=O)Nc2cnc3ccccc3c2)CCN1Cc1ccccc1OC(F)F (stereo not given)	-7%	-14%
Cc1ccc(-c2c(NC(=O)C(C)C)n(C)c3ccccc3c2=O)cc1	-6%	-8%
NS(=O)(=O)c1ccc(NC(=O)CN2C(=O)COc3ccc(Cl)cc32)cc1	-15%	?
Cc1ccc(OCC(=O)O/N=C(\N)Cc2ccc(Cl)cc2)cc1	-9%	-14%
COc1ccc([N+](=O)[O-])cc1N(CC(=O)Nc1ccccc1C(=O)N1CCOCC1)S(C)(=O)=O	-8%	i
CCOC(=O)C(Cc1ccccc1)NS(=O)(=O)c1ccc(NC(C)=O)cc1 (stereo not given)	-6%	-9%
O=C(Nc1nc2nccc(-c3ccccc3)n2n1)c1ccc(F)cc1	-7%	-4%
COc1ccc(C2CC(c3cccs3)=NN2S(=O)(=O)c2ccc(C)cc2)cc1 (stereo not given)	-25%	-28%
O=S(=O)(c1ccc2[nH]c3c(c2c1)CCCCC3)N1CCN(c2cccc(Cl)c2)CC1	0%	-11%
Cc1cc(NC(=O)C(C)N2C(=O)c3ccccc3S2(=O)=O)no1 (stereo not given)	-13%	i
COc1ccc(CNC(=O)c2ccc(NC(=O)N3CCSc4ncccc43)cc2)cc1	-7%	-5%
O=C(c1ccco1)N1CCN(C(=O)c2nn3cccnc3c2Cl)CC1	-12%	i
CCc1nc2ccc(C(=O)Nc3ccc(C(=O)N(C)C)cc3)cn2c1N(C)CCCc1ccccc1	-14%	i
Cc1nc2nc(CNC(=O)OC(C)(C)C)nn2c(C)c1CCC(=O)NCc1ccccc1Cl	3%	10%
COc1ccccc1C(=O)Nc1sc(C(=O)N2CCCC2)c(C)c1C#N	-10%	i
COc1ccc(OC)c(NC(=O)C2CCN(S(=O)(=O)c3c(C)noc3C)CC2)c1	-16%	-8%
Cc1ccc(/C=N/Nc2ccc3ccccc3n2)o1	?	?
Cc1ccc(-c2nc3sc(CCNC(=O)c4ccco4)c(C)n3n2)cc1	-14%	-18%
Cc1ccc(C)c(NC(=O)Cn2cc(C(=O)C3CCCCC3)c3ccccc32)c1	-9%	3%
COc1ccc(-c2cc3nc(N)cc(=O)n3[nH]2)cc1	-2%	-13%
CCCN1CNc2c(c(=O)[nH]c(=S)n2CCc2cc(OC)ccc2OC)C1	-6%	-11%
Cc1cccc(C)c1Nc1nnc(SCC(=O)c2ccc(Br)s2)s1	-10%	-16%
CC(=O)Nc1ccccc1C(=O)C(=O)Nc1cccc(C(=O)N2CCC3(CC2)OCCO3)c1	-5%	-22%
CCC1(C)Cc2c(sc3nc(NN)n(C)c(=O)c23)CO1 (stereo not given)	?	.
C=CCc1ccccc1OCC(=O)OCCNC(=O)c1cccnc1	-5%	-9%
O=C1NC(=O)N(c2ccc(F)cc2)C(=O)/C1=C/c1ccc2c(c1)CCCN2Cc1ccccc1	4%	-15%
COc1ccc(Nc2ncnc3c2cnn3-c2cccc(C)c2)cc1OC	-11%	i

7 of the compounds above, with bars between the fields:
mol | VACV Venus inh | VACV mCherry inh
CCCN1CNc2c(c(=O)[nH]c(=S)n2CCc2cc(OC)ccc2OC)C1 | -6% | -11%
Cc1cccc(C)c1Nc1nnc(SCC(=O)c2ccc(Br)s2)s1 | -10% | -16%
CC(=O)Nc1ccccc1C(=O)C(=O)Nc1cccc(C(=O)N2CCC3(CC2)OCCO3)c1 | -5% | -22%
CCC1(C)Cc2c(sc3nc(NN)n(C)c(=O)c23)CO1 (stereo not given) | ? | .
C=CCc1ccccc1OCC(=O)OCCNC(=O)c1cccnc1 | -5% | -9%
O=C1NC(=O)N(c2ccc(F)cc2)C(=O)/C1=C/c1ccc2c(c1)CCCN2Cc1ccccc1 | 4% | -15%
COc1ccc(Nc2ncnc3c2cnn3-c2cccc(C)c2)cc1OC | -11% | i

(next part)
SMILES	VACV Venus inh	VACV mCherry inh
CC1(C(=O)NS(=O)(=O)c2cccs2)CCN1C(=O)Cc1ccc(Cl)cc1Cl (stereo not given)	3%	21%
CC(C)C[C@@H]1O[C@H](C(C)C)Cc2[nH][nH]c(=O)c21	-6%	24%
O=C(COC(=O)c1ccc[n+]([O-])c1)Nc1ccccc1OC(F)F	0%	i
O=C(Nc1ccc(F)cc1)c1ccc(CSc2ccc(Cl)cc2)o1	-4%	i
O=C(NCc1ccc(F)cc1)C1CCCN1S(=O)(=O)c1ccc(F)cc1 (stereo not given)	-14%	i
O=C(Nc1ccccc1)c1ccccc1Br	6%	12%
NC(=O)C1CCN(c2nc(C3CC3)nc3c2nnn3Cc2ccccc2Cl)CC1	-18%	-10%
COc1ccc(-n2c(-c3ccco3)nc3ccccc3c2=O)cc1	-11%	i
Cc1ccccc1OCc1nnc(SCc2cc(=O)[nH]c3ccccc23)n1-c1ccccc1	?	?
CC(=O)N1c2ccc(S(=O)(=O)N3CCCC(C(=O)Nc4cc(C)cc(C)c4)C3)cc2CC1C (stereo not given)	?	-20%
CCCc1nc2ccccc2n2c(-c3ccc(C)cc3)c3c(=O)n(C)c(=O)n(C)c3c12	-2%	-7%
CC1CN(C(=O)c2scc3c2OCCO3)CC(C)O1 (stereo not given)	-13%	-15%
Cn1c(=O)c2c(ncn2CC(=O)OCC(=O)Nc2cccc(C#N)c2)n(C)c1=O	-7%	i
CCNC(=O)CC1C(=O)N(c2cccc(C)c2)C(=O)N1CCC(C)C (stereo not given)	4%	-5%
CCc1nc2c(OCCOC)cccn2c1N(C)C(=O)Nc1ccccc1OC	13%	3%
C=CCn1c(SCc2nc3ccccc3c(=O)[nH]2)nc2scc(C3CC3)c2c1=O	-2%	13%
O=C(Cc1ccc(Cl)cc1)Nc1ccncc1	-20%	-7%
CC(=O)Nc1ccc(Nc2cc(C)nc3c(-c4ccccc4)cnn23)cc1	?	?
COC(=O)C(Cc1ccccc1)NC(=O)CNC(=O)c1ccc(Br)o1 (stereo not given)	-11%	-10%
O=C(O)CCNC(=O)/C(=C\C=C\c1ccccc1)NC(=O)c1ccccc1	-5%	-2%
COc1ccc(C(CNC(=O)C(C)(C)Oc2ccc(Cl)cc2)N2CCOCC2)cc1 (stereo not given)	-17%	-22%
CCOC(=O)C1=C(CCc2ccccc2)NC(=O)NC1c1cccc([N+](=O)[O-])c1 (stereo not given)	?	-29%
COc1ccc(CNC(=O)c2ccc(CS(=O)(=O)c3ccc(OC)cc3)o2)cc1	-6%&-6%	6%&-5%
CCN1CC2=C(OC(N)=C(C#N)C2c2cccs2)/C(=C/c2cccs2)C1 (stereo not given)	-20%	i
O=c1[nH]c2ccccc2nc1N1CCOCC1	-2%	i
CCOCC(=O)Nc1ncc(S(=O)(=O)c2ccc([N+](=O)[O-])cc2)s1	?	?
Cc1ccc(-c2csc3ncnc(-n4cnc5ccccc54)c23)cc1	?	?
O=C(C[n+]1ccccc1Cl)c1ccc2c(c1)CCCC2	-10%	-9%
Cc1ccc(C2(c3noc(CN(C)CCO)n3)CCCC2)cc1	-18%	-5%
Cc1cc(C)n2nc(SCC(=O)N(C)Cc3ccccc3)nc2n1	-8%	-5%
CC(C)(C)C(=O)NC(=S)Nc1sc2c(c1C#N)CCCCC2	-16%	-20%
COc1ccc(S(=O)(=O)NCC(c2ccc(F)cc2)N2CCN(C)CC2)cc1 (stereo not given)	-6%	i
COc1cccc2c(=O)c3c(cnn3C)n(C)c12	-20%	.
COc1ccc2oc(C(=O)OCC(=O)NCC3CCCO3)c(C)c2c1 (stereo not given)	-14%	i
COc1ccc(NC2c3ccccc3C(=O)N2Cc2ccc3c(c2)OCO3)cc1 (stereo not given)	-13%	-29%
CC(=O)NCCNc1nc2cc(-c3cccc(Cl)c3)sc2c(=O)n1C	-17%	10%
CCCn1c(=O)c(C(=O)N/N=C/c2ccccc2F)c(O)c2ccccc21	-7%	-6%
Cc1ccc(NC(=O)CCC(=O)N2CCSc3ccccc32)cc1	-10%	i
CC(C)(C)OC(=O)C[C@H]1C/C=C\C[C@@H](CC(=O)N(CCO)Cc2ccccc2)C(=O)N2CCC[C@@H]2COC1=O	-17%	-7%
O=C(CN1C(=O)c2ccccc2C1=O)Oc1ccc(Cl)cc1	-15%	i
COc1cc(CNC2CCCC2)cc(OC)c1	-12%	i
Cc1ccnc(NC(=O)CCC(=O)N(CC(=O)NCCc2ccccc2)c2ccc(F)cc2)c1	-5%	11%
COc1cc(NC(=O)c2ccccc2Cl)c(OC)cc1NC(=O)CN1CCOCC1	0%	.
CC(NC(=O)/C(C#N)=C/c1ccc([N+](=O)[O-])o1)c1ccccc1 (stereo not given)	74%[activator]	5%
O=C(Nc1ccc2oc(-c3ccccc3)nc2c1)c1ccco1	-15%	-1%
Cc1nc(C(F)(F)F)ccc1C(=O)N1CCCC1(C)C(=O)NCC(C)C (stereo not given)	-6%	24%
COc1cc(NC(=O)c2cc(-c3cccs3)on2)c(OC)cc1Cl	-7%	-19%
COc1ccc(-c2ccc(=O)n(CC(=O)NCc3ccco3)n2)cc1	-14%	.
COc1ccc(NC(=O)N(C)C[C@H]2Oc3ccc(NC(=O)Nc4ccc(C(F)(F)F)cc4)cc3C(=O)N([C@H](C)CO)C[C@@H]2C)cc1	-5%	i
COc1ccc2c(c1)c(=O)oc1cc(OCC(=O)N3CCCC(C)C3)ccc12 (stereo not given)	?	.
Cc1ccc(-n2ncc(C(=O)Nc3ccc4c(c3)OCCO4)c2C2CCN(C(=O)OC(C)(C)C)CC2)cc1	-24%	-2%
Cc1ccc(Sc2ccncc2S(N)(=O)=O)cc1	-8%	i
Cc1ccccc1Nc1c(-c2cccs2)nc2cccc(C)n12	-29%	?
CCOc1ccc(OCCOc2ncnc3ccccc23)cc1	-3%	.
O=C(CSc1nccc(=O)[nH]1)Nc1ccc(N2CCOCC2)cc1	-3%	1%
CC1(C)C=Cc2cc(-c3coc4cc(O)cc(O)c4c3=O)cc(O)c2O1	-3%	-16%
N#Cc1ccc(NC(=S)NC(=O)C2CC2)cc1	-9%	i
COc1ccccc1-n1c(SC(C)C(=O)NCC2CCCO2)nc2cc(Cl)ccc2c1=O (stereo not given)	-5%	-14%
COc1cc(C(C(=O)NCC2CCCO2)N(C(=O)Cn2nnc3ccccc32)c2ccc(C(C)=O)cc2)ccc1O (stereo not given)	1%	-1%
COc1ccc(S(=O)(=O)NCc2csc(C)n2)cc1	-8%	-10%

Profiles, looked up by structure. Values in the order: VACV Venus inh | VACV mCherry inh
Profile of `COc1ccc(S(=O)(=O)NCc2csc(C)n2)cc1` → -8% | -10%
Profile of `COc1ccccc1-n1c(SC(C)C(=O)NCC2CCCO2)nc2cc(Cl)ccc2c1=O` (stereo not given) → -5% | -14%
Profile of `CCOc1ccc(OCCOc2ncnc3ccccc23)cc1` → -3% | .
Profile of `COc1ccc2c(c1)c(=O)oc1cc(OCC(=O)N3CCCC(C)C3)ccc12` (stereo not given) → ? | .
Profile of `O=C(Nc1ccc2oc(-c3ccccc3)nc2c1)c1ccco1` → -15% | -1%

(continued)
SMILES	VACV Venus inh	VACV mCherry inh
CC1(c2nc3ccccc3[nH]2)CCC(=O)N1Cc1cccs1 (stereo not given)	13%	10%
Cn1nnnc1NCc1c(F)cccc1Cl	-16%	-1%
O=C(N/N=C/c1cn(-c2ccccc2)nc1-c1ccc(F)cc1)c1ccc2c(c1)OCO2	-14%	.
COc1ccc(NC(=O)CC(CC(=O)O)c2cc(OC)c(OC)c(OC)c2)cc1 (stereo not given)	-8%	-3%
CN1CCC(CNC(=O)Nc2ccccc2)(c2ccccc2)CC1	-15%	-9%
CC(=O)Nc1ccc(N2C(=O)c3ccc(C(=O)Nc4nnc(SCc5ccc(F)cc5)s4)cc3C2=O)cc1	-4%	-4%
N#Cc1cc2c(=O)n3ccccc3nc2n(-c2nnc(SCc3ccccc3)s2)c1=O	8%	-2%

High-throughput results as filed in PubChem.
